Compound activity as filed in PubChem.
FGF22 binding = binders of recombinant human FGF22 by thermal shift; SYPRO orange fluorescence; percent of sucrose octasulfate shift, DMSO zero; calls only at 9.99 µM; 340,000 tested, 1.5% active; AID 651658;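 active = melting point raised past a set limit in the mean and every replicate; three in four hits are not shown here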
Target sequence (Q9HCT0 whole entry, looked up): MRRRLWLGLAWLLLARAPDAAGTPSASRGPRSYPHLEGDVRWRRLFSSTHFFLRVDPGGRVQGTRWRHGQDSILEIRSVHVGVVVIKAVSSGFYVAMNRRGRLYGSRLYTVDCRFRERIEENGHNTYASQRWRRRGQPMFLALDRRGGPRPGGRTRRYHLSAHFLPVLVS
rRNA inh HTS = selective bacterial rRNA inhibition in E. coli. 350,000 tested, 1.6% active. GFP signal change (wild-type ribosome), % (test concentration not listed). E. coli WT GFP vs humanized-ribosome RFP mutants, fluorescence, 24 h; stronger effect = lower value; DMSO median 0, no signal -100;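 active = significant combined selectivity score with lowered wild-type GFP, culture density cut under 30%, mutant RFP and density less affected; inactive = any of these conditions unmet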; also: one replicate is shown; some compounds called inactive have numbers as strong as hits
MLL AF4-AF9 inh = blocks AF4 peptide binding to human AF9 | P42568 | inhibition, % at 10 µM | 350,000 tested, 0.47% active | AlphaScreen, biotin-AF4 peptide binding to FLAG-AF9;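 active = every replicate reaching a set inhibition limit, whatever the replicate mean, cut at about 25% in these data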;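 also: 0% = plate neutral control median and 100% = total signal loss; the record names both 10 and 1 µM as test concentration; the first replicate is given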
Target sequence (P42568 whole entry, looked up): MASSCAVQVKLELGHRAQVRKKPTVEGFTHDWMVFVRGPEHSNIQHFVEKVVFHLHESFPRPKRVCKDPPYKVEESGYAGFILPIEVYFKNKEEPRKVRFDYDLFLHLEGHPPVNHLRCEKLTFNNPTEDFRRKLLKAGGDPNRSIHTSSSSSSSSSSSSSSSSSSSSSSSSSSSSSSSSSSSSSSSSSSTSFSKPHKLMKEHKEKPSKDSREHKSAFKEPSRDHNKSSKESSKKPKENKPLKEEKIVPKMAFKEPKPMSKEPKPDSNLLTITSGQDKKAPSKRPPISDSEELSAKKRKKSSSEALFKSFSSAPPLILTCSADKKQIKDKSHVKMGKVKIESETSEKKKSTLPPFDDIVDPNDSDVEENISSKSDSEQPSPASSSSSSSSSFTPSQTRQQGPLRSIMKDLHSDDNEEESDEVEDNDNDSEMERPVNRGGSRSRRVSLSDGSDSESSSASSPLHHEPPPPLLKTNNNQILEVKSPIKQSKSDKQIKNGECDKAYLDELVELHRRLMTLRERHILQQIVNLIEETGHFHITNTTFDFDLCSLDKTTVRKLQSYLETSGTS
rRNA inh HTS OD600 = also measured in rRNA inh HTS; calls as there; OD600 change, %; measured here: OD600 growth;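 optical density of the mix in the first replicate; 0 = DMSO median and -100 = no signal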
rRNA inh HTS RFP = second read-out of rRNA inh HTS, no call of its own (marks repeat the call); RFP signal change, %; measured here: RFP humanized mutant strains;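 first replicate; 0 = DMSO median and -100 = no signal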
The depositor's hits bear a star; & = joins results of further samples. A portion of the library; rates above refer to the full screens.

For O=C(c1ccccc1)c1ccc(N2CCN(C(=O)c3ccc(F)cc3F)CC2)c(F)c1 the results were FGF22 binding inactive, rRNA inh HTS -6, MLL AF4-AF9 inh -2.0, rRNA inh HTS OD600 -16 and rRNA inh HTS RFP -2.5.
`COc1ccc2c3c([nH]c2c1)[C@@H](CO)N(C(C)=O)CC31CN(C(=O)Nc2ccc(F)cc2F)C1` gave FGF22 binding inactive, rRNA inh HTS -1, MLL AF4-AF9 inh 4.0, rRNA inh HTS OD600 0 and rRNA inh HTS RFP 1.2.
COc1ccc(NC(=O)N(C)C[C@H]2OCCCC[C@@H](C)Oc3ccc(NC(=O)NC(C)C)cc3C(=O)N([C@@H](C)CO)C[C@H]2C)cc1 was read as FGF22 binding inactive, rRNA inh HTS -2, MLL AF4-AF9 inh -3.8, rRNA inh HTS OD600 6 and rRNA inh HTS RFP -1.4.
Screening COc1ccc(C(C)(O)c2nc(-c3ccc(F)cc3OC)cs2)cc1 (centres undefined) returned FGF22 binding inactive, rRNA inh HTS -51, MLL AF4-AF9 inh 0.0, rRNA inh HTS OD600 -77 and rRNA inh HTS RFP -14.
C[C@@H]1CN([C@@H](C)CO)C(=O)Cc2cc(NC(=O)Nc3ccccc3)ccc2O[C@H]1CN(C)Cc1ccc2c(c1)OCO2 was read as FGF22 binding inactive, rRNA inh HTS -18, MLL AF4-AF9 inh 13, rRNA inh HTS OD600 -43 and rRNA inh HTS RFP 28.
CS(=O)(=O)N1[C@H](C#N)[C@H](c2ccc(-c3ccccc3F)cc2)[C@H]1CO was read as FGF22 binding inactive, rRNA inh HTS -3, MLL AF4-AF9 inh 1.6, rRNA inh HTS OD600 0 and rRNA inh HTS RFP 1.1.
`CN1[C@@H]2Cn3c(ccc(-c4ccccc4F)c3=O)[C@H]1[C@@H](C(=O)NCc1ccccn1)[C@@H]2CO` gave FGF22 binding inactive, rRNA inh HTS 4, MLL AF4-AF9 inh -0.3, rRNA inh HTS OD600 4 and rRNA inh HTS RFP -3.5.
CCCCNC(=O)C1(C)CCC(=O)N1CC(F)(F)F (centres undefined) was read as FGF22 binding inactive, rRNA inh HTS 4, MLL AF4-AF9 inh -2.2, rRNA inh HTS OD600 5 and rRNA inh HTS RFP -2.3.
`Cc1noc(C)c1NC(=O)Nc1ccc2c(c1)C(=O)N(C)[C@@H]1CC[C@H](CC(=O)N[C@@H]3CCN(Cc4ccccc4)C3)O[C@@H]1CO2` gave FGF22 binding inactive, rRNA inh HTS 0, MLL AF4-AF9 inh 0.9, rRNA inh HTS OD600 0 and rRNA inh HTS RFP -1.6.
`CC(C)CN(C[C@H]1N[C@H](CO)[C@H]1c1ccccc1)C(=O)CN(C)C` gave FGF22 binding inactive, rRNA inh HTS 2, MLL AF4-AF9 inh -1.3, rRNA inh HTS OD600 3 and rRNA inh HTS RFP -2.2.
For C[C@H]1CN([C@@H](C)CO)C(=O)Cc2cc(NC(=O)Cn3cnnn3)ccc2O[C@H]1CN(C)Cc1ccc2c(c1)OCO2 the results were FGF22 binding inactive, rRNA inh HTS 1, MLL AF4-AF9 inh 4.0, rRNA inh HTS OD600 -2 and rRNA inh HTS RFP 3.1.
For C[C@H](CO)N1C[C@H](C)[C@@H](CN(C)C(=O)Nc2ccccc2F)OCc2cnnn2CCCC1=O the results were FGF22 binding inactive, rRNA inh HTS 1&-1, MLL AF4-AF9 inh -2.5&-2.9&-4.5, rRNA inh HTS OD600 8&0 and rRNA inh HTS RFP -2.1&-2.2.
C[C@H](CO)N1C[C@H](C)[C@@H](CN(C)C(=O)Nc2cccc3ccccc23)OCCCC[C@H](C)Oc2ccc(NC(=O)NC3CCCCC3)cc2C1=O was read as FGF22 binding inactive, rRNA inh HTS 4, MLL AF4-AF9 inh -0.6, rRNA inh HTS OD600 0 and rRNA inh HTS RFP 0.3.
Cc1ccc(S(=O)(=O)N(C)C[C@H]2Oc3ccc(NS(=O)(=O)c4cccs4)cc3CC(=O)N([C@@H](C)CO)C[C@@H]2C)cc1 was read as FGF22 binding inactive, rRNA inh HTS -3, MLL AF4-AF9 inh 1.6, rRNA inh HTS OD600 -4 and rRNA inh HTS RFP 0.6.
For CNC[C@@H]1Oc2ccc(NC(=O)Nc3ccc(C(F)(F)F)cc3)cc2C(=O)N([C@H](C)CO)C[C@@H]1C the results were FGF22 binding inactive, rRNA inh HTS -2, MLL AF4-AF9 inh 1.7, rRNA inh HTS OD600 -16 and rRNA inh HTS RFP 9.6.
Screening C[C@@H]1CCCCO[C@H](CN(C)S(=O)(=O)c2ccccc2)[C@@H](C)CN([C@@H](C)CO)C(=O)c2cc(NS(C)(=O)=O)ccc2O1 returned FGF22 binding inactive, rRNA inh HTS -1, MLL AF4-AF9 inh -0.1, rRNA inh HTS OD600 -2 and rRNA inh HTS RFP 1.2.
`CS(=O)(=O)N1[C@@H]2c3ccc(C4=CCCC4)c(=O)n3C[C@H]1[C@H](CO)[C@H]2C(=O)N1CCCCC1` gave FGF22 binding inactive, rRNA inh HTS 5, MLL AF4-AF9 inh 0.0, rRNA inh HTS OD600 13 and rRNA inh HTS RFP -4.9.
`CCC(=O)N1C[C@@H](C)[C@H](OC)CN(C)C(=O)c2cc(NC(=O)c3cnccn3)ccc2OC[C@@H]1C` gave FGF22 binding inactive, rRNA inh HTS -5, MLL AF4-AF9 inh -3.7, rRNA inh HTS OD600 4 and rRNA inh HTS RFP -2.6.
Screening C[C@H](CO)N1C[C@H](C)[C@@H](CN(C)Cc2ccccc2)Oc2ccc(NC(=O)Cc3cn(C)c4ccccc34)cc2C1=O returned FGF22 binding inactive, rRNA inh HTS 4, MLL AF4-AF9 inh 6.6, rRNA inh HTS OD600 1 and rRNA inh HTS RFP 0.8.
Screening C[C@H]1CN([C@@H](C)CO)C(=O)c2cc(NC(=O)CCC(F)(F)F)ccc2O[C@@H]1CN(C)Cc1ccc(C(=O)Nc2ccccc2N)cc1 returned FGF22 binding inactive, rRNA inh HTS -2, MLL AF4-AF9 inh -12, rRNA inh HTS OD600 8 and rRNA inh HTS RFP -2.5.

For reference, five of the compounds above.
For CNC[C@@H]1Oc2ccc(NC(=O)Nc3ccc(C(F)(F)F)cc3)cc2C(=O)N([C@H](C)CO)C[C@@H]1C the results were FGF22 binding inactive, rRNA inh HTS -2, MLL AF4-AF9 inh 1.7, rRNA inh HTS OD600 -16 and rRNA inh HTS RFP 9.6.
Screening C[C@@H]1CCCCO[C@H](CN(C)S(=O)(=O)c2ccccc2)[C@@H](C)CN([C@@H](C)CO)C(=O)c2cc(NS(C)(=O)=O)ccc2O1 returned FGF22 binding inactive, rRNA inh HTS -1, MLL AF4-AF9 inh -0.1, rRNA inh HTS OD600 -2 and rRNA inh HTS RFP 1.2.
`CS(=O)(=O)N1[C@@H]2c3ccc(C4=CCCC4)c(=O)n3C[C@H]1[C@H](CO)[C@H]2C(=O)N1CCCCC1` gave FGF22 binding inactive, rRNA inh HTS 5, MLL AF4-AF9 inh 0.0, rRNA inh HTS OD600 13 and rRNA inh HTS RFP -4.9.
`CCC(=O)N1C[C@@H](C)[C@H](OC)CN(C)C(=O)c2cc(NC(=O)c3cnccn3)ccc2OC[C@@H]1C` gave FGF22 binding inactive, rRNA inh HTS -5, MLL AF4-AF9 inh -3.7, rRNA inh HTS OD600 4 and rRNA inh HTS RFP -2.6.
Screening C[C@H](CO)N1C[C@H](C)[C@@H](CN(C)Cc2ccccc2)Oc2ccc(NC(=O)Cc3cn(C)c4ccccc34)cc2C1=O returned FGF22 binding inactive, rRNA inh HTS 4, MLL AF4-AF9 inh 6.6, rRNA inh HTS OD600 1 and rRNA inh HTS RFP 0.8.

More entries follow:
`CCCN(C)C[C@H]1Oc2ncc(C#CCOC)cc2C(=O)N([C@H](C)CO)C[C@H]1C` gave FGF22 binding inactive, rRNA inh HTS 7, MLL AF4-AF9 inh -4.1, rRNA inh HTS OD600 11 and rRNA inh HTS RFP -0.9.
For C[C@@H]1CN([C@@H](C)CO)C(=O)c2cc(C3=CCCC3)cnc2O[C@@H]1CN(C)Cc1ccccc1 the results were FGF22 binding inactive, rRNA inh HTS 5, MLL AF4-AF9 inh 0.2, rRNA inh HTS OD600 0 and rRNA inh HTS RFP 1.8.
CN(c1ccccc1)S(=O)(=O)c1ccc(C(=O)NCc2cccnc2)cc1 was read as FGF22 binding inactive, rRNA inh HTS -1, MLL AF4-AF9 inh -1.1, rRNA inh HTS OD600 -22 and rRNA inh HTS RFP 0.1.
For C/C=C/c1cnc2c(c1)C(=O)N([C@H](C)CO)C[C@H](C)[C@@H](CN(C)C(=O)C1CCOCC1)O2 the results were FGF22 binding inactive, rRNA inh HTS 4, MLL AF4-AF9 inh -1.8, rRNA inh HTS OD600 6 and rRNA inh HTS RFP -3.7.
C[C@@H]1CN([C@@H](C)CO)C(=O)c2cc(C#CCN(C)C)cnc2O[C@@H]1CN(C)Cc1ccccn1 was read as FGF22 binding inactive, rRNA inh HTS 8, MLL AF4-AF9 inh -1.7, rRNA inh HTS OD600 14 and rRNA inh HTS RFP -0.5.
O=C(NC1CCC1)[C@@H]1[C@@H](CO)[C@@H]2Cn3c(ccc(-c4ccncc4)c3=O)[C@@H]2N1CC1CC1 was read as FGF22 binding inactive, rRNA inh HTS -1, MLL AF4-AF9 inh 0.9, rRNA inh HTS OD600 -3 and rRNA inh HTS RFP 0.9.
For Cc1cccnc1C1=NOC(Cc2ccccc2)C(=O)N1C (centres undefined) the results were FGF22 binding inactive, rRNA inh HTS 11, MLL AF4-AF9 inh 0.4, rRNA inh HTS OD600 6 and rRNA inh HTS RFP 11.
`C[C@H](NC(=O)C[C@@H]1C[C@@H]2c3cc(NC(=O)CC4CC4)ccc3O[C@@H]2[C@@H](CO)O1)c1ccccc1` gave FGF22 binding inactive, rRNA inh HTS -6, MLL AF4-AF9 inh -2.2, rRNA inh HTS OD600 -7 and rRNA inh HTS RFP 3.1.
Screening COc1ccc(NC(=O)N(C)C[C@@H]2OCCCC[C@@H](C)Oc3ccc(NC(=O)Cc4ccccc4)cc3C(=O)N([C@@H](C)CO)C[C@@H]2C)cc1 returned FGF22 binding inactive, rRNA inh HTS 0, MLL AF4-AF9 inh -6.5, rRNA inh HTS OD600 -6 and rRNA inh HTS RFP 3.4.
`CC(C)NC(=O)N(C)C[C@H]1Oc2cc(C#CCN(C)C)ccc2S(=O)(=O)N([C@H](C)CO)C[C@@H]1C` gave FGF22 binding inactive, rRNA inh HTS 3, MLL AF4-AF9 inh -0.8, rRNA inh HTS OD600 7 and rRNA inh HTS RFP -1.8.
For CCCNC(=O)C[C@@H]1CC[C@@H]2[C@H](COc3ccc(NC(=O)c4cccc(F)c4)cc3C(=O)N2C)O1 the results were FGF22 binding inactive, rRNA inh HTS -1, MLL AF4-AF9 inh -1.1, rRNA inh HTS OD600 1 and rRNA inh HTS RFP -2.4.
Screening C[C@@H]1CN([C@@H](C)CO)C(=O)c2cc(C#CCN(C)C)cnc2O[C@@H]1CN(C)S(C)(=O)=O returned FGF22 binding inactive, rRNA inh HTS 16, MLL AF4-AF9 inh -0.6, rRNA inh HTS OD600 14 and rRNA inh HTS RFP -2.1.
For O=C([C@@H]1[C@@H](CO)[C@@H]2Cn3c(ccc(-c4ccccc4)c3=O)[C@@H]2N1CCC(F)(F)F)N1CCOCC1 the results were FGF22 binding inactive, rRNA inh HTS 1, MLL AF4-AF9 inh -3.3, rRNA inh HTS OD600 -4 and rRNA inh HTS RFP 2.6.
`COc1ccc(NC(=O)Nc2ccc3c(c2)C(=O)N([C@@H](C)CO)C[C@H](C)[C@@H](CN(C)C(=O)Cc2ccccc2)OCCCC[C@H](C)O3)cc1` gave FGF22 binding inactive, rRNA inh HTS -1, MLL AF4-AF9 inh -0.9, rRNA inh HTS OD600 -2 and rRNA inh HTS RFP 0.9.
`CO[C@H]1CN(C)C(=O)c2ccc(NC(=O)Nc3ccccc3)cc2OC[C@H](C)N(C(C)=O)C[C@H]1C` gave FGF22 binding inactive, rRNA inh HTS 0, MLL AF4-AF9 inh 2.4, rRNA inh HTS OD600 -4 and rRNA inh HTS RFP -2.0.
Screening C[C@H]1CN([C@@H](C)CO)C(=O)c2cccc(NC(=O)CCCCCC(=O)Nc3ccccc3N)c2O[C@@H]1CN(C)S(C)(=O)=O returned FGF22 binding inactive, rRNA inh HTS 4, MLL AF4-AF9 inh -3.9, rRNA inh HTS OD600 7 and rRNA inh HTS RFP 1.4.
C[C@@H]1CCCCO[C@H](CN(C)Cc2ccc(Cl)c(Cl)c2)[C@H](C)CN([C@@H](C)CO)C(=O)c2cc(NC(=O)Nc3ccc4c(c3)OCO4)ccc2O1 was read as FGF22 binding inactive, rRNA inh HTS 2, MLL AF4-AF9 inh 1.2, rRNA inh HTS OD600 -3 and rRNA inh HTS RFP 2.9.
For CC(C)CCN1CCC(CN2C(=O)C(=O)NC[C@@H]2CC(C)C)CC1 the results were FGF22 binding inactive, rRNA inh HTS 15, MLL AF4-AF9 inh -2.9, rRNA inh HTS OD600 14 and rRNA inh HTS RFP -0.1.
COCOCCn1cc(CN2CCS(=O)(=O)N(Cc3ccc(-c4cccc(N(C)C)c4)cc3)C(CC(C)C)C2=O)nn1 (centres undefined) was read as FGF22 binding inactive, rRNA inh HTS 7, MLL AF4-AF9 inh 5.8, rRNA inh HTS OD600 7 and rRNA inh HTS RFP -0.8.
